# Screening data deposited in PubChem BioAssay by National Center for Advancing Translational Sciences (NCATS).
# ClpP mod = qHTS Assay for Activators of ClpP; purified B. subtilis ClpP, FRET peptide cleavage, 20 min; actives 1.9% (n = 340,000); Potency, µM (titrated, usually from 57.5 µM), for the others: top-dose activity change, negative = active; ATP-dependent Clp protease proteolytic subunit (Bacillus subtilis (strain 168)), P80244; active = well fitted falling curve with a large enough effect; inconclusive = small, poorly fitted or top-dose-only effect; inactive = no such curve, though single readings can be large or run the other way; also: potency is read from the fitted curve at half-maximal effect; the source files actives as falling curves though it sought activators and does not explain the sign; nearly all actives have a fitted effect of over 65% in size; many hits overshoot -100%
# Target sequence (P80244 whole entry, looked up): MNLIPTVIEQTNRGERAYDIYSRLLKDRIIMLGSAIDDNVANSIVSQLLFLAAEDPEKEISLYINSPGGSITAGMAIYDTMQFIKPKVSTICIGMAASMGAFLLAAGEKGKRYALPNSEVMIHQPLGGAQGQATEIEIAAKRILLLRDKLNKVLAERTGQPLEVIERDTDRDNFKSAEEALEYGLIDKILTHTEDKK
#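 Buffer: 100 mM Tris/HCl pH8, 100 mM KCl, 0.05% low protease BSA, 2.5% glycerol, 0.01% Tween-20. ClpP 10 microg/mL final; 20 min RT; delta FRET normalized to ADEP and DMSO controls.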
# gsp antagonist = antagonists of gsp mutant (McCune-Albright syndrome); gsp-mutant cells, cAMP HTRF, 30 min; control for the full effect not named in the record; Potency, µM (highest dose often 76.9 µM), for inactives: at the highest dose activity change, negative = inhibition, actives largely listed as inhibitors; actives 0.4% (n = 340,000); active = falling curve of any shape with a large fitted effect; inconclusive = falling curve, mostly with a smaller effect; inactive = flat or rising curve; cell line not stated here;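 also: intracellular cAMP measured with PDE inhibitor Ro 20-1724 present during compound exposure; potency is read from the fitted curve at half-maximal effect; % is scaled to controls: 0 for no effect and ±100 for the full control effect; nearly all actives have a fitted effect of over 65% in size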
#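 HTRF cAMP read-out (cAMP-d2 plus anti-cAMP antibody-K in lysis buffer, 30 min RT). Before lysis, cells are exposed to compounds with […] for 30 min at 37C in DPBS containing Ca/Mg, BSA and Tween 20.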
# D2 ag = activates the human D2 dopamine receptor | P14416 | activation, % (test concentration not listed) | DiscoveRx PathHunter D2 beta-arrestin, luminescence, 90 min; 100% = 57 uM dopamine signal | actives 0.084% (n = 360,000) | AID 624465; in the data active = activation above about 40%; inconclusive = about 15% to 40%; inactive = below about 15%; also: compound concentration not given in the record; the text of the record calls up to 30% inactive
# Target sequence (P14416 whole entry, looked up): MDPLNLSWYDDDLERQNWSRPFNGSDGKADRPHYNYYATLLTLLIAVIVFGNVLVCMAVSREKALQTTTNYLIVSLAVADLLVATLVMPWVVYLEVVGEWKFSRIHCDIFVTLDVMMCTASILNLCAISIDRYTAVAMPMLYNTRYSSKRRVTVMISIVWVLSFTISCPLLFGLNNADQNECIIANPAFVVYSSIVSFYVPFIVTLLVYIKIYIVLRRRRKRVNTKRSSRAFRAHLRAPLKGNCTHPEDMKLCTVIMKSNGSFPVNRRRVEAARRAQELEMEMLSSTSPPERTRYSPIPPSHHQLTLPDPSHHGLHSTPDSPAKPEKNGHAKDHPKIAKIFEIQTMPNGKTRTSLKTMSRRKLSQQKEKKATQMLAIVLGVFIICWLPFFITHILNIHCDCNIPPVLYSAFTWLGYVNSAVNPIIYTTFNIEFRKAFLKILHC
#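 DiscoveRx PathHunter D2 beta-arrestin cells (2,100/well) attached overnight, then compound-stimulated 90 min at 37 C in HBSS/10 mM HEPES/0.1% Tween-20 buffer; beta-galactosidase complementation read by luminescence after 1 h at ambient temperature. Dopamine 57 uM final (EC100) as control.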
# gsp agonist = gsp mutant agonism; AID 624287; gsp mutant cells, cAMP HTRF, 30 min; control for the full effect not named in the record; Potency, µM (series often up to 76.9 µM), for inactives: at the top dose activation (cAMP increase), actives largely listed as activators; actives 0.13% (n = 340,000); active = well fitted activation curve with a large enough effect; inconclusive = small, poorly fitted or top-dose-only effect, or another doubt; inactive = no such curve, though single readings can be large or run the other way; cell line not stated here;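 also: phosphodiesterase inhibitor Ro 20-1724 added with compounds to block cAMP breakdown; potency is read from the fitted curve at half-maximal effect; nearly all actives have a fitted effect of over 60% in size; about a fifth of the inactives were tested at one dose only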
#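 Cells in DMEM/10% FBS with G418 were pretreated with compounds in DMSO plus […] (300 uM stock) for 30 min at 37C. cAMP was measured by HTRF (cAMP-d2 plus anti-cAMP antibody-K) after 30 min at room temperature.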
# Sfp inh = Sfp phosphopantetheinyl transferase inhibition. Biochemical Sfp PPTase activity, qHTS. Q9F4F7. Potency, µM, for the others: max response, negative = inhibition, hits mostly inhibitors. actives 3.5% (n = 310,000). AID 1490; active = well fitted inhibition curve with a large enough effect; inconclusive = small, poorly fitted or top-dose-only effect, or another doubt; inactive = no such curve, though single readings can be large or run the other way;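 also: the enzyme is Sfp with the accession as filed and its product quenches rhodamine fluorescence; potency is read from the fitted curve at half-maximal effect; 0% = enzyme reaction without inhibitor and -100% = no enzyme wells; top concentration of the series not given in the record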
#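 With Hepes-Na pH 7.6 buffer containing 10 mM MgCl2, Sfp (15 nM) modified BHQ-2-YbbR (12.5 uM) using rhodamine-CoA (5 uM). Two reads 30 minutes apart at 525/598 nm yielded each well's rate.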
# Menin MLL FP FL = menin-MLL binding inhibition, fluorescein peptide; 290,000 tested, under 10 active; FP activity change, % at 61.4 µM; AID 1766; Fluorescence polarization, fluorescein-MLL peptide displacement from menin; inconclusive = falling polarisation curve, or a change in total fluorescence; inactive = total fluorescence flat and polarisation flat or rising; no compound was filed as active; the % refers to the polarisation; negative = inhibition;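 also: % of control where 0% means no effect; inhibitors lower the polarisation; unlabelled MLL peptide was the positive control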
# PINK1 modulator = PINK1 expression modulation | AID 624263 | PINK1 immunofluorescence, high-content cytometry, 24 h | Potency, µM (series often up to 76.6 µM), inactives show top-dose activation (PINK1 increase), hits mostly activators | actives 0.2% (n = 410,000); active = well fitted activation curve with a large enough effect; inconclusive = small, poorly fitted or top-dose-only effect; inactive = flat fitted curve, though single readings scatter; cell line not stated here;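 also: potency is read from the fitted curve at half-maximal effect; % of control where 0% means no effect; nearly all actives have a fitted effect of over 65% in size; a mitochondrial uncoupler was the plate control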
#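 Stable cell line treated 24 h with compounds at 5 concentrations (CCCP controls), then fixed and immunostained for PINK1 plus nuclear and cell stains; PINK1 immunofluorescence quantified by laser-scanning microplate cytometry.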
# * = called active by the depositor; ? = inconclusive; / = no result given; [ ] = dose if it differs, or a comment.
SMILES,ClpP mod,gsp antagonist,D2 ag,gsp agonist,Sfp inh,Menin MLL FP FL,PINK1 modulator
COc1cccc(-n2sc3c(c2=S)-c2cc(OC)ccc2NC3(C)C)c1,1.8%,-17%,-1.1,-21%,26%,-1.4,8.0%
CCN(CC)S(=O)(=O)c1cccc(NC(=O)COC(=O)c2cncc(Br)c2)c1,-0.6%,-13%,-1.5,19%[15.4 µM],/,/,-0.3%
CNC(=O)C(NC(=O)Nc1ccc(C)cc1)C(C)(C)C (stereo unspecified),/,/,-0.4,-18%[15.4 µM],13%,-0.1,1.2%
CCc1ccc(OCc2nnc(SCC(=O)N3CCOCC3)o2)cc1,0.4%,2%,-1.5,-4%,18%,0.4,0.4%
CCCCc1nnc(NC(=O)c2ccc(S(=O)(=O)N3CCOCC3)cc2)s1,-0.6%,-2%,-2.2,-24%,/,/,0.6%
CCN(CC)c1ccc(NC(=O)Nc2ccccc2C(F)(F)F)cc1,0.8%,8%,-3.4,20%,13%,5.0,-0.2%
COC(=O)c1c(-c2ccco2)csc1NC(=O)C1CC=CCC1C(=O)O (stereo unspecified),-2.5%,-4%,-3.6,32µM*,13µM*,?,-2.9%
COC(=O)CNC(=O)c1ccccc1,-3.6%,11%,-7.1,/,/,/,-0.8%
Cc1ccc2nc(SCC(=O)Nc3cc(C)on3)c(C)cc2c1,/,2%,0.1,21%,6%,-4.5,11%
COc1ccc(Br)cc1S(=O)(=O)NCCN1CCOCC1,/,-1%,0.9,7%,22%,-1.0,2.7%
CCCC(C)C(=O)Nc1ccncc1 (stereo unspecified),-2.8%,2%,2.1,8%,4%,5.9,-0.1%
CN(C)CCNc1nc2c(c(=O)[nH]c(=O)n2C)n1CC(O)COc1ccc(Cl)cc1 (stereo unspecified),0.6%,6%,-0.7,-56%[inhibitor],7%,-0.6,-0.3%[38.3 µM]
O=C(CNC(=S)N(Cc1ccc(F)cc1)C1CCCCC1)NC1CC1,-1.5%,2%,-4.7,-4%,-3%,3.3,?
CCOC(=O)C1CCN(S(=O)(=O)c2ccc(C(=O)OC)cc2)CC1,-1.1%,5%,0.7,2%,3%,0.6,/
CC(Sc1nc2ccccc2s1)C(=O)NC1CCCc2ccccc21 (stereo unspecified),-27%,-26%,-8.2,-2%,-2%,42[activator],0.9%
Cc1cccc(C)c1N(C(=O)c1ccco1)C(C(=O)NC1CCCC1)c1ccncc1 (stereo unspecified),0.4%,-14%,5.0,6%[15.4 µM],22%,3.9,0.5%
Cc1cc(C)cc(C(=O)N2CC(=O)Nc3ccccc32)c1,-13%,30%,0.3,-4%,4%,3.3,?
Fc1ccc(NC(=S)NCc2ccc3c(c2)OCO3)cc1,-6.6%,8%,4.6,-7%,18%,-1.2,0.5%
O=C(O)CN1CCN(CC(=O)O)CCN(CC(=O)O)CCN(CC(=O)O)CC1,0.2%,2%,1.2,/,/,/,0.1%
COc1ccc(N2CCN(C(CNC(=O)CC(C)(C)C)c3ccc4c(c3)OCO4)CC2)cc1 (stereo unspecified),-0.6%,-1%,-3.7,?,6%,0.4,0.6%
O=C(CN1C(=O)NC2(CCCC2)C1=O)OCc1ccccc1F,-0.6%,5%,0.0,-28%,/,/,-0.6%
COc1ccc(C(CNC(=O)C(C)Oc2ccc(Br)cc2)N2CCOCC2)cc1 (stereo unspecified),28µM*,-1%,-4.6,?,/,/,0.7%
CCC(C)N(C(=O)Cn1nnc(-c2ccc(Cl)cc2)n1)C1CCS(=O)(=O)C1 (stereo unspecified),-1.8%,-14%,0.6,-75%[inhibitor],/,/,3.6%
Cc1noc(C)c1C(=O)OCC(=O)N(C)C1(C#N)CCCCC1,-0.4%,4%,?,-1%,/,/,2.6%
O=C(Nc1nccc(-c2cccs2)n1)c1ccccc1Cl,-15%,2%,-7.7,0%,-15%,-0.2,10%
COc1ccc(Cl)c(NC(=O)Nc2c(C)n(-c3ccccc3)c(=O)n2C)c1,-1.9%,-4%[15.4 µM],-2.0,11%,4%,0.4,-1.7%
CC(C)(CCl)C(=O)Nc1ccc(C(F)(F)F)cc1,/,/,-1.1,-12%[15.4 µM],24%,0.6,-1.1%
CSC(=S)N(C)C1CCS(=O)(=O)C1 (stereo unspecified),-1.8%,-8%,-3.4,-12%,14%,0.2,3.5%
CCc1cc2c(=O)[nH]c(N3CCOCC3)nc2s1,-6.4%,8%,-3.4,1%,8%,-0.7,-0.5%
COc1ccc(-c2nc3cnc(N(C)C)nc3n(Cc3cccs3)c2=O)cc1,/,/,/,/,26%,-15,4.9%
Cc1cc(Br)ccc1OCCCCNCCO,1.4%,5%,-1.4,17%,-16%,3.0,0.4%
Cc1c(Cl)cc(C(C)C)c(O)c1CN1CCOCC1,4.2%,-8%,-1.5,-16%,/,/,?
COc1ccc(-c2cc(C(F)(F)F)n3nc(C(=O)NCCCN4CCOCC4)cc3n2)cc1,/,/,-0.9,8%[15.4 µM],14%,-6.5,-0.6%
O=C(CSc1cn(Cc2ccccc2)c2ccccc12)Nc1nccs1,2.0%,-7%,-6.7,-14%,-14%,1.4,3.5%
COc1ccc(/C=C(\NC(=O)c2ccccc2)C(=O)NCc2ccco2)cc1,-0.3%,13%,-8.0,-2%[15.4 µM],11%,-1.0,11%
CCCc1nnc(NC(=O)CCC(=O)N2CCN(Cc3ccc(F)cc3)CC2)s1,0.9%,8%,1.8,?,13%,/,1.1%
Cc1nn(Cc2cccc(C(=O)N3CCCC(C)C3)c2)c(C)c1[N+](=O)[O-] (stereo unspecified),-1.1%,-4%,2.2,-1%[15.4 µM],-3%,4.9,0.9%
COc1cc(SC#N)ccc1N=Cc1c(C)[nH]n(-c2ccc(Cl)cc2)c1=O,1.5%,0%,-5.5,-17%,0%,17,-1.6%
CSc1ccc(S(=O)(=O)N(CC(=O)NN=C2CCN(C)CC2)c2ccc(C)cc2)cc1,-2.7%,?,-0.6,-22%,12%,1.1,-0.5%
O=C(NC1CCCC1)C(c1cccnc1)N(Cc1ccccc1F)C(=O)c1csnn1 (stereo unspecified),/,2%,-1.4,14%,11%,-5.0,1.2%
C=CCNC(=S)N/N=C/c1ccc(OCc2ccccc2Cl)cc1,17%,-16%,-1.2,5%,13%,-2.1,16%[38.3 µM]
O=C(Nc1nc(-c2cc3ccccc3oc2=O)cs1)c1ccc(Br)o1,-29%,?,-2.3,-28%,-20%,1.4,4.2%
Cc1cc(C(=O)N2CCCc3ccccc32)ccc1[N+](=O)[O-],/,-7%,1.0,-31%[inhibitor],6%,-2.1,1.8%
O=C(c1cccnc1)N1N=C2CCCCCC2C1(O)C(F)(F)F (stereo unspecified),/,10%,-2.1,0%[15.4 µM],-9%,-4.4,-0.5%
COc1ccc(CSC2=NCCN2)cc1Cl,-4.9%,3%,-4.2,-8%,18%,0.8,?
CCc1ccc(OCC(=O)NNC(=O)c2cc(S(=O)(=O)N3CCOCC3)ccc2N2CCCC2)cc1,-1.7%,-9%,-2.5,17%,/,/,-0.1%
COCCN(C(=O)/C=C/c1cccc([N+](=O)[O-])c1)c1c(N)n(Cc2ccccc2)c(=O)[nH]c1=O,/,4%,3.0,-42%[15.4 µM],0%,0.7,-3.7%
CCOc1cc2[nH]c(=S)n(Cc3ccc(C(=O)NCCCN(CC)CC)cc3)c(=O)c2cc1OCC,/,0%,-7.4,-15%,-3%,4.6,-1.5%
Cc1cccc(NC(=O)c2cnn(C)c2)c1C,-2.2%,12%,-1.2,-35%[inhibitor],-2%,4.3,-1.5%
Cc1cccc(-c2onc3ccc(C(=O)/C=C/N(C)C)cc23)c1,1.9%,?,?,4%,-6%,-6.9,-0.8%
Cc1nn(-c2ccccc2)c(Cl)c1/C=N/NC(=O)c1ccco1,-1.7%,9%,3.2,5%,10%,1.7,2.8%
O=C(N/N=C/c1cccnc1)c1ccc(NC(=O)c2ccc(F)cc2)cc1,-1.4%,-1%,-5.3,9%[15.4 µM],29%,-6.8,4.3%
NC(=S)Cc1nc(-c2ccc(Cl)cc2)cs1,-0.1%,13%,-13,-25%,?,12,?
CSc1nc2ncc3c(n2n1)CC1c2ccccc2CCN1C3=O (stereo unspecified),28µM*,-2%,-8.8,24%,1%,3.7,/
COc1ccc(Cl)cc1NC(=O)CNc1ccccc1F,1.3%,-10%,-2.0,-5%,-2%,2.4,4.3%
Cc1nnc(SCC(=O)N/N=C/c2cn(-c3ccccc3)nc2-c2ccccc2)n1-c1ccccc1,-0.9%,?,2.0,-35%[inhibitor],10%,7.0,-1.4%
O=C(Nc1ccc(N2CCCC2)c(Cl)c1)c1ccc([N+](=O)[O-])o1,/,4%,1.3,3%[15.4 µM],-5%,0.2,-2.1%
Cc1c2c(=O)n(-c3nc4ccccc4s3)nc-2cc(O)n1Cc1ccccc1,-1.2%,-7%,-3.4,4%,-27%,?,1.6%
O=C(NCCO)C(=O)Nc1cc2c3c(c1)CCN3C(=O)CC2,-4.7%,2%,1.7,?,7%,-1.1,-1.0%
CCC(Cc1ccccc1)NS(=O)(=O)c1ccc2c(c1)NC(=O)C(C)S2 (stereo unspecified),-0.6%,-9%,12,-3%,-9%,/,0.0%
# (list continues)
SMILES,ClpP mod,gsp antagonist,D2 ag,gsp agonist,Sfp inh,Menin MLL FP FL,PINK1 modulator
CCOC(=O)c1sc(NC(=O)C2CC=CCC2C(=O)O)nc1C (stereo unspecified),-1.2%,-5%,-0.1,-2%,21%,-0.4,1.6%[38.3 µM]
COc1ccccc1CNCc1cc(=O)oc2c(C)c(C)ccc12,/,-6%,0.1,-37%[inhibitor],1%,-6.5,6.5%
CCn1c(C)c(C2=CCN(S(=O)(=O)c3ccccc3)CC2)c2ccccc21,?,-20%,0.9,-2%,-14%,3.7,-1.2%
O=C(NC1CC1)C1CCN(C2CCN(C(=O)/C=C/c3ccc(F)cc3)CC2)CC1,/,10%,-0.3,4%[15.4 µM],6%,8.0,3.6%
N#Cc1ccc(C(S(=O)(=O)Cc2ccccc2)S(=O)(=O)Cc2ccccc2)cc1,-1.4%,/,-3.4,-15%,/,/,0.2%
O=C(N/N=C/C(Cl)=C/c1ccccc1)c1ccco1,/,-10%,2.3,-4%[15.4 µM],-15%,1.0,3.6%
